D2 agonist: agonists of human D2 dopamine receptor (beta-arrestin); P14416; DiscoveRx PathHunter D2 beta-arrestin, luminescence, 90 min; 100% = 57 uM dopamine signal; activation, % (test concentration not listed); hit rate 0.084% among 360,000; in the data active = activation above about 40%; inconclusive = about 15% to 40%; inactive = below about 15%; further: compound concentration not given in the record; the text of the record calls up to 30% inactive
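Agonist mode: compounds alone added to overnight-plated D2 PathHunter cells for 90 min at 37 C, with 57 uM final dopamine (EC100) defining full response. Beta-arrestin recruitment detected by chemiluminescent reagent, read after 1 h at ambient temperature.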
TRPML1 blocker: inhibitors of human TRPML1 channel. Q9GZU1. TRPML1-inducible cells, Ca2+ dye fluorescence, FDSS; stronger effect = lower value; inhibition of EC80 agonist-evoked calcium signal. activity change, negative = inhibition, % (test concentration not listed). hit rate 0.02% among 390,000. AID 624415; in the data active means activity change below about -50%; inconclusive means about -30% to -50%; inactive means above about -30%;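 further: stimulus is agonist 54-4 at its EC80 concentration; on the % scale 0 is the no-effect control and ±100 the full control effect; compound concentration not given in the record; the text of the record puts the active cut at -80%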
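TRPML1-DL cells, Tet-induced overnight (~16 h, 37 °C) at 1,500 cells/well, were loaded with Ca8 no-wash dye plus quencher for 45-90 min at room temperature. Compounds were pinned during FDSS kinetic reading; agonist 54-4 at EC80 (4 uM final) then added.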
TRPML1 ag: agonists of human TRPML1 channel; hit rate 0.12% among 410,000; activation, % (no concentration beside the values); Q9GZU1; TRPML1-expressing cells, Ca2+ dye fluorescence, FDSS; host cell line not named in the record; reference of the full effect not given here; in the data active = activation above about 50%; inconclusive = about 30% to 50%; inactive = below about 30%; further: 0% is about no effect; the text of the record puts the active cut at 80%
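Kinetic FDSS Ca2+ read in Tet-induced TRPML1-DL cells (ABD Ca8 dye plus quencher, 45-90 min RT loading): baseline, then compound, then 110 s agonist window; EC80 agonist 54-4 at 4uM final added afterwards for a 110 s antagonist window.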
D2 PAM: positive allosteric modulators of human D2 dopamine receptor. P14416. hit rate 0.23% among 360,000. DiscoveRx D2 beta-arrestin cells, luminescence, 90 min; 100% = 57 uM dopamine signal. potentiation, % (concentration not given with the values); active = potentiation of 50% or more; inconclusive = 30% to 50%; inactive = 30% or less;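 further: compound concentration not given in the record; tested on top of an EC20 dose of dopamine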
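D2 cells co-treated with compound plus 50 nM dopamine (EC20) for 90 min at 37 deg C to detect potentiation. Beta-arrestin recruitment was read as enzyme-fragment luminescence after 1 h at ambient temperature. Full response was set by 57 uM dopamine.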
PINK1 modulator: changes PINK1 expression | PINK1 immunofluorescence, high-content cytometry, 24 h | AID 624263 | hit rate 0.2% among 410,000 | Potency, µM (titrated, usually from 76.6 µM), for inactives: at the top dose activation (PINK1 increase), most hits filed as activators; active = well fitted activation curve with a large enough effect; inconclusive = small, poorly fitted or top-dose-only effect; inactive = flat fitted curve, though single readings scatter; cell line not stated here;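 further: potency means the concentration at half of the fitted maximal effect; % of control where 0% means no effect; nearly all actives have a fitted effect of over 65% in size; a mitochondrial uncoupler was the plate control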
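Decision-based qHTS: stable cells, 24 h exposure to five compound concentrations, CCCP as control. Fixed cells stained for PINK1 plus nuclear, mitochondrial and cell markers, cytometer read.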
Six1-Eya2 blk: Six1/Eya2 interaction inhibition | Q15475+O00167 | AlphaScreen GST-Six1/His-Eya2 binding, biochemical; stronger effect = lower value; control for the full effect not named in the record | activity change, % (test concentration not listed) | hit rate 0.56% among 360,000; in the data active = activity change below about -65%; inconclusive = about -30% to -65%; inactive = above about -30%; further: on the % scale 0 is the no-effect control and ±100 the full control effect; compound concentration not given in the record
Target sequence (O00167 whole entry, looked up): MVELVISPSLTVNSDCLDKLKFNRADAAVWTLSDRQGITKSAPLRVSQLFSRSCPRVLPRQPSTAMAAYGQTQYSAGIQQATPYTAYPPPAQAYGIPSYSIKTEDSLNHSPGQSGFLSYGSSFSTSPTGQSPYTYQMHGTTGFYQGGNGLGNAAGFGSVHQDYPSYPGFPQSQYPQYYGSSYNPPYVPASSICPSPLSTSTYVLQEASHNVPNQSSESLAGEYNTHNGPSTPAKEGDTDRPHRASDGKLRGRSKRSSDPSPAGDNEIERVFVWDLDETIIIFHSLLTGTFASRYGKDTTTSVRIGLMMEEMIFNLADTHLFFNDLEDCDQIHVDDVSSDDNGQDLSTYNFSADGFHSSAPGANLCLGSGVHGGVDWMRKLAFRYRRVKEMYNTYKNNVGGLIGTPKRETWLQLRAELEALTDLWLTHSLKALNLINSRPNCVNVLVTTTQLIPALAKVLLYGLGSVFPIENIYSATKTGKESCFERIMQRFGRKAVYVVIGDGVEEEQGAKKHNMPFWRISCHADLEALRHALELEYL
Target sequence (Q15475 whole entry, looked up): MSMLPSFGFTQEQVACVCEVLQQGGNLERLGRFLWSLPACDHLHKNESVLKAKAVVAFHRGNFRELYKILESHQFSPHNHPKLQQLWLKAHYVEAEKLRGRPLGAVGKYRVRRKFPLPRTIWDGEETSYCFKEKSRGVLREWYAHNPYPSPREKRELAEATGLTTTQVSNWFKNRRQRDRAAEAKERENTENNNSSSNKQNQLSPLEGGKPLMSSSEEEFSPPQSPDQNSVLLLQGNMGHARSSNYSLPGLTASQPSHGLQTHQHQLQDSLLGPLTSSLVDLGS
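Six1/Eya2 binding was read as AlphaScreen signal after compounds were pinned into GST-Six1 plus His-tagged Eya2 (5X stock 250/500 nM) in pH 8.0 Tris/NaCl/TCEP buffer, beads added, then incubated 1 h, 37 C, dark.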
Active calls of the source: *; [ ] = remark or other dose.

Screening Cc1ccc(C=Cc2ccccn2)cc1 returned D2 agonist -1.3, TRPML1 blocker -16.5, TRPML1 ag -0.9, D2 PAM -10.4, PINK1 modulator 1.6% and Six1-Eya2 blk 9.8.
CCOC(=O)c1c(C)n(C)c2cc(OCCN(CC)CC)ccc12 was read as D2 agonist 0.5, TRPML1 blocker -2.6, TRPML1 ag -0.1, D2 PAM -27.9, PINK1 modulator -1.6%[38.3 µM] and Six1-Eya2 blk -10.5.
Screening Cc1nnc2c(NC3CCCC3)nc3ccccc3n12 returned D2 agonist -4.7, TRPML1 blocker 10.2, TRPML1 ag -0.5, D2 PAM -28.5, PINK1 modulator 2.8% and Six1-Eya2 blk 2.8.
For COc1ccccc1-n1c(C)nc2cc(C(=O)NCCN3CCOCC3)ccc21 the results were D2 agonist -1.9, TRPML1 blocker -8.5, TRPML1 ag 0.5, D2 PAM -21.1, PINK1 modulator -0.4% and Six1-Eya2 blk 0.7.
CCC(=O)Nc1ccc2c(c1)ncn2C was read as D2 agonist 0.7, TRPML1 blocker 27.6, TRPML1 ag -0.4, D2 PAM -5.7, PINK1 modulator -1.7% and Six1-Eya2 blk 5.9.
`O=C(Cn1ccc2ccccc2c1=O)N1CCN(c2cccc(Cl)c2)CC1` gave D2 agonist 3.3, TRPML1 blocker 2.1, TRPML1 ag 1.4, D2 PAM 17.8, PINK1 modulator 0.5% and Six1-Eya2 blk 5.5.
For Cc1cccc(Nc2ccc([N+](=O)[O-])cn2)c1 the results were D2 agonist 1.2, TRPML1 blocker 3.0, TRPML1 ag 0.5, D2 PAM -26.3, PINK1 modulator 0.9% and Six1-Eya2 blk -4.9.
For CCOC(=O)C1CCN(C(C)=C2C(=O)c3ccccc3C2=O)CC1 the results were D2 agonist -2.9, TRPML1 blocker 14.4, TRPML1 ag 1.0, D2 PAM 10.0, PINK1 modulator -2.1% and Six1-Eya2 blk 3.5.
Screening CCN(CC)c1nn2c(=O)c(C(=O)NCc3cccc(OC)c3OC)cnc2s1 returned TRPML1 blocker -8.2, TRPML1 ag 0.0 and PINK1 modulator 0.2%.
Screening O=C(c1cccc(Br)c1)N1CCN(C2=NS(=O)(=O)c3ccccc32)CC1 returned D2 agonist -6.3, TRPML1 blocker -0.5, TRPML1 ag -0.5, D2 PAM -0.2, PINK1 modulator 0.5% and Six1-Eya2 blk 19.3.
For Cc1cc(C)cc(NC(=O)CSc2nncn2-c2ccccn2)c1 the results were D2 agonist -1.3, TRPML1 blocker 3.7, TRPML1 ag 0.9, D2 PAM -6.5, PINK1 modulator 0.7% and Six1-Eya2 blk -1.8.
`COC(=O)c1ccccc1NC1c2ccccc2C(=O)N1c1cccnc1` (configuration not stated) gave D2 agonist 7.0, TRPML1 blocker -3.7, TRPML1 ag 0.8, D2 PAM -3.5, PINK1 modulator -0.4% and Six1-Eya2 blk -0.3.
`Cc1nnc(NC(=O)c2ccc(S(=O)(=O)N3CCOCC3)cc2)s1` gave D2 agonist -1.4, TRPML1 blocker 7.3, TRPML1 ag 0.2, D2 PAM 0.9, PINK1 modulator 1.0% and Six1-Eya2 blk -15.0.
Screening Cc1ccc(OCCC(=O)OCC(=O)N2CC(=O)Nc3ccccc32)cc1 returned D2 agonist -3.9, TRPML1 blocker -3.1, TRPML1 ag -0.6, D2 PAM -10.3, PINK1 modulator 1.0% and Six1-Eya2 blk 5.9.
For CC(=O)NC1Sc2ccccc2N=C1c1ccccc1 (configuration not stated) the results were D2 agonist -5.5, TRPML1 blocker -4.7, TRPML1 ag -0.4, D2 PAM 19.8, PINK1 modulator 0.8% and Six1-Eya2 blk 0.0.
Screening CC1(C)Cc2cccc(OCC(=O)NCCc3ccc(S(N)(=O)=O)cc3)c2O1 returned D2 agonist 0.2, TRPML1 blocker -5.6, TRPML1 ag 2.5, D2 PAM -10.3, PINK1 modulator -1.1% and Six1-Eya2 blk 8.9.
For O=C(O)c1ccccc1C(=O)Nc1ccccn1 the results were D2 agonist 0.2, TRPML1 blocker 1.8, TRPML1 ag -0.9, D2 PAM 0.5, PINK1 modulator 0.8% and Six1-Eya2 blk 4.3.
Cc1cccc(CNC(=O)CCCn2nc(C)c3c(C)n(-c4ccccc4)nc3c2=O)c1 was read as D2 agonist -0.3, TRPML1 blocker -9.7, TRPML1 ag 1.0, D2 PAM -9.4, PINK1 modulator 1.0% and Six1-Eya2 blk -22.3.
For O=C(CSc1nnc(CCCN2C(=O)c3cccc4cccc(c34)C2=O)n1-c1ccccc1)NCCCO the results were D2 agonist 2.6, TRPML1 blocker -17.7, TRPML1 ag -0.7, D2 PAM 11.5, PINK1 modulator 2.2% and Six1-Eya2 blk -1.3.
`COc1cc(C(=O)Nc2ccc3[nH]c(=O)sc3c2)cc(OC)c1OC` gave TRPML1 blocker 34.9, TRPML1 ag -1.6 and PINK1 modulator 5.1%.
COc1cccc(Cn2c(CNC(=O)CCc3ccccc3)nc3cccnc32)c1 was read as TRPML1 blocker 2.0, TRPML1 ag -0.7 and PINK1 modulator -0.7%.
O=C(O)C1CCN(C(=O)COc2ccc3c4c(c(=O)oc3c2)CCCC4)CC1 was read as D2 agonist -5.0, D2 PAM -23.3, PINK1 modulator -0.6% and Six1-Eya2 blk -1.7.
For Cc1cc(C)c(NC(=O)C(C)n2nnc3sc4c(c3c2=O)CCCC4)c(C)c1 (configuration not stated) the results were TRPML1 blocker 10.7, TRPML1 ag 2.5 and PINK1 modulator 1.3%.
For NNC(=S)NCc1ccc2c(c1)OCO2 the results were D2 agonist -1.8, TRPML1 blocker 3.6, TRPML1 ag -0.4, D2 PAM -16.5, PINK1 modulator -1.4% and Six1-Eya2 blk -2.2.
`COc1cccc(CN2CCN(Cc3cccc4nonc34)CC2CCO)c1` (configuration not stated) gave D2 agonist -4.8, TRPML1 blocker 18.6, TRPML1 ag 1.6, D2 PAM -12.6, PINK1 modulator -2.1% and Six1-Eya2 blk 1.7.
CCOC(=O)CN(C(=O)COc1nc(-c2ccccc2)cc(C)c1C#N)c1ccc(F)cc1 was read as D2 agonist -8.4, TRPML1 blocker 35.2, TRPML1 ag 1.4, D2 PAM -0.1, PINK1 modulator 1.0% and Six1-Eya2 blk 6.4.
For CC(C)N(C)c1ncnc2c1ncn2[C@H]1CN(Cc2cccnc2)C[C@@H](CO)O1 the results were D2 agonist -3.2, TRPML1 ag -0.4, D2 PAM -17.5, PINK1 modulator 0.2% and Six1-Eya2 blk 1.5.
`COc1ccc(CC(=O)OCC(=O)NC2CCCCC2)cc1OC` gave D2 agonist -1.2, TRPML1 blocker -0.3, TRPML1 ag -0.5, D2 PAM -11.3, PINK1 modulator 0.9% and Six1-Eya2 blk 7.9.
`CN1CCN(C(=O)c2ccc3nc(-c4ccccc4)c(-c4ccccc4)nc3c2)CC1` gave D2 agonist -2.5, TRPML1 blocker 10.4, TRPML1 ag 0.0, D2 PAM -38.1, PINK1 modulator -1.8% and Six1-Eya2 blk 9.0.
`COc1ccc(S(=O)(=O)Nc2cc3[nH]c(=O)oc3cc2C)cc1` gave D2 agonist 2.7, TRPML1 blocker 14.4, TRPML1 ag 1.5, D2 PAM 1.5, PINK1 modulator 7.2% and Six1-Eya2 blk -2.7.

An excerpt from above in order of molar mass, rising:
`COc1ccc(CC(=O)OCC(=O)NC2CCCCC2)cc1OC` gave D2 agonist -1.2, TRPML1 blocker -0.3, TRPML1 ag -0.5, D2 PAM -11.3, PINK1 modulator 0.9% and Six1-Eya2 blk 7.9.
For CC(C)N(C)c1ncnc2c1ncn2[C@H]1CN(Cc2cccnc2)C[C@@H](CO)O1 the results were D2 agonist -3.2, TRPML1 ag -0.4, D2 PAM -17.5, PINK1 modulator 0.2% and Six1-Eya2 blk 1.5.
`CN1CCN(C(=O)c2ccc3nc(-c4ccccc4)c(-c4ccccc4)nc3c2)CC1` gave D2 agonist -2.5, TRPML1 blocker 10.4, TRPML1 ag 0.0, D2 PAM -38.1, PINK1 modulator -1.8% and Six1-Eya2 blk 9.0.

The list goes on.
Screening COC(=O)c1cc(C(=O)Nc2nc3ccccc3[nH]2)cc([N+](=O)[O-])c1 returned D2 agonist -0.1, TRPML1 blocker -2.9, TRPML1 ag -0.3, D2 PAM 1.9, PINK1 modulator 1.9% and Six1-Eya2 blk -9.0.
Screening Cc1ccc(NC(=O)Cn2c(=O)oc3cc(S(=O)(=O)N4CCCC4)ccc32)cc1F returned TRPML1 blocker -12.3, TRPML1 ag 0.4 and PINK1 modulator -0.1%.
For CC(=O)c1ccc(S(=O)(=O)NCCOc2ccccc2)cc1 the results were D2 agonist 3.0, TRPML1 blocker -4.9, TRPML1 ag -0.6, D2 PAM 7.2, PINK1 modulator 1.4% and Six1-Eya2 blk -0.1.
`Cc1cc(=O)oc2cc(NC(=O)C3CCCC3)ccc12` gave D2 agonist -4.1, TRPML1 blocker 4.2, TRPML1 ag -0.9, D2 PAM -1.2, PINK1 modulator 4.1% and Six1-Eya2 blk -5.7.
Cc1cccc(N2CCN(C(=O)Cn3c(C)c4cnn(-c5ccccc5)c(=O)c4c3C)CC2)c1C was read as TRPML1 blocker 1.0, TRPML1 ag -0.5 and PINK1 modulator 0.1%.
`CCCOc1ccc([N+](=O)[O-])cc1C1NC(=S)NC(c2ccccc2)=C1C(=O)OCC` (configuration not stated) gave D2 agonist -3.1, TRPML1 blocker 14.3, TRPML1 ag -0.1, D2 PAM -27.4, PINK1 modulator 0.9% and Six1-Eya2 blk -16.5.
Screening Oc1c(C(c2cccc(Br)c2)N2CCCC2)sc2nc(-c3ccco3)nn12 (configuration not stated) returned TRPML1 blocker -13.6, TRPML1 ag 3.3 and PINK1 modulator 4.0%.
`CC1(C)CC(=O)C=C(c2cccc(O)c2)C1=O` gave D2 agonist -5.1, TRPML1 blocker 8.8, TRPML1 ag -0.5, D2 PAM -10.7, PINK1 modulator 0.5% and Six1-Eya2 blk 4.5.
For Cc1ccc(N=Cc2c(O)[nH]c3ccccc23)c([N+](=O)[O-])c1 the results were D2 agonist -2.9, TRPML1 blocker -9.3, TRPML1 ag 0.0, D2 PAM -5.1, PINK1 modulator -0.8% and Six1-Eya2 blk -0.7.
Screening CCNC(=S)/C(=C(/[O-])c1ccc([N+](=O)[O-])cc1)[n+]1ccccc1 returned D2 agonist 1.1, TRPML1 blocker -5.4, TRPML1 ag 0.3, D2 PAM -7.7, PINK1 modulator -0.2% and Six1-Eya2 blk 4.9.
CC(C)c1ccc(NC(=O)C(c2ccc3c(c2)OCO3)N2CCN(C(=O)c3ccco3)CC2)cc1 (configuration not stated) was read as D2 agonist -4.0, TRPML1 blocker 27.5, TRPML1 ag 1.3, D2 PAM -16.9, PINK1 modulator 1.6% and Six1-Eya2 blk -22.6.
`COc1ccc(C(O)c2nc3ccccc3n2C(C)C)cc1` (configuration not stated) gave D2 agonist 2.1, D2 PAM -7.8, PINK1 modulator 5.1% and Six1-Eya2 blk 5.2.
Cc1ccc(S(=O)(=O)CC(=O)Nc2ccc3nc(C)sc3c2)cc1 was read as D2 agonist -3.5, TRPML1 blocker 20.1, TRPML1 ag -1.5, D2 PAM -30.4, PINK1 modulator 0.7% and Six1-Eya2 blk -1.3.
For O=C1c2ccccc2C(=O)N1CCN1CCc2ccccc21 the results were D2 agonist -0.7, TRPML1 blocker -4.7, TRPML1 ag 1.5, D2 PAM -9.3, PINK1 modulator 6.6% and Six1-Eya2 blk -13.4.

From PubChem BioAssay
